RN4220 kill: kills Staphylococcus aureus RN4220 | S. aureus RN4220 growth, OD600, 16 h | inhibition, % (no concentration beside the values) | 330,000 compounds, 0.33% hits | AID 1259311;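 active = z-score of -3 or lower and OD600 up to 0.18 on both plates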;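 note: plate controls were untreated cells for no effect and reference antibiotic for full effect; stock transfer was 100 nL into about 80 µL; one replicate is shown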
Autofluor counter: flagged as autofluorescent in microsphere protease counterscreen | compound autofluorescence counterscreen, microsphere flow cytometry; stronger effect = higher value | fluorescence intensity (no concentration beside the values) | 360,000 compounds, 3.1% hits;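 active = at least 3 SD above the mean of all compounds, about 16000 in these data; inconclusive = too few beads counted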;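 note: 100 nL of 1 mM stock went into each well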
Mtb hypoxia rep: reduces hypoxia-regulated biosensor signal in M. tuberculosis; M. tuberculosis hypoxia-regulated fluorescent reporter, fluorescence; fluorescence inhibition, % (concentration not given with the values); 300,000 compounds, 0.1% hits; AID 1159583;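 active = 35 to 45% if threefold the growth effect, above 45% if 1.5-fold the growth effect; inactive = the rest, general growth blockers included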;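 note: wells of about 50 µL received 100 nL stock; 0% = vehicle wells and 100% = reference inhibitor wells; whole bacteria with a GFP reporter of the hypoxia response; strong numbers were not always called active; many hits fall short of the cut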
Sa ugtP lethal: growth inhibition of S. aureus ugtP deletion strain. S. aureus RN4220 ugtP deletion, OD600 growth, 16 h; some inactives read as strong as hits. growth inhibition, % (test concentration not listed). 330,000 compounds, 0.54% hits;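 active = z-score under -3 and OD600 up to 0.15 on both plates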;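 note: plate controls were untreated wells for no effect and antibiotic for full effect; wells of about 80 µL received 100 nL stock; the first replicate is given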
BJeLR viability: BJeLR cell viability loss; inhibition, % (concentration not given with the values); BJeLR (HRASV12) viability, CellTiter-Glo ATP luminescence, 48 h; reference of the scale not given here; 300,000 compounds, 0.17% hits;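 active = replicate mean above 50%; inconclusive = above 50% but judged a plate artefact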;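 note: 50 nL library stock added to about 25 µL; numbers are from one replicate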
PrP UTR inh: suppresses PrP 5' UTR mRNA reporter expression; cell-based PrP 5' UTR mRNA reporter, plate reader; inhibition, % (concentration not given with the values); 340,000 compounds, 0.35% hits; AID 488862;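 active = every replicate at 50% or more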;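 note: 0 = median of the neutral control wells; tested in H4 reporter cells; numbers are from one replicate; inactives centre near -14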
Mtb hypoxia rep growth: recorded beside Mtb hypoxia rep, whose call it bears; growth inhibition, %; measured here: M. tuberculosis growth (absorbance);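 0% = vehicle and 100% = reference antibiotic; read after six days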
Numbers without * were called inactive; ? = inconclusive; / = no result given; & = joins results of further samples.

SMILES | RN4220 kill | Autofluor counter | Mtb hypoxia rep | Mtb hypoxia rep growth | Sa ugtP lethal | BJeLR viability | PrP UTR inh
COCCNC(=O)c1cn(C)c2ccc(S(=O)(=O)N(C)C3CCCCC3)cc2c1=O | 2.7 | 5471 | / | / | 3 | / | -32
COc1cc(OC)c(/C=N/NC(=O)COc2cccc3cccnc23)c(OC)c1 | / | 5963 | / | / | / | 4 | -34
O=C(Nc1cccc(Oc2c(F)c(F)c(F)c(F)c2F)c1)N1C[C@@H]2C[C@@H](C1)c1cccc(=O)n1C2 | 4.8 | 2410 | 0 | 0 | 12 | -5 | -12
O=C(c1cc(F)ccc1F)C1CCCN(Cc2cccn2-c2ccccn2)C1 (stereo unspecified) | -1.1 | 3684 | 13 | 4 | 1 | 6 | -9
Cc1cccc(Nc2nnc(SCC(=O)NC3CCCc4ccccc43)s2)c1 (stereo unspecified) | 0.3 | 2014 | 6 | 8 | 18 | 8 | -18
CC(C)(C)c1nc(NC(=O)Nc2ccccc2)sc1Br | 97* | 4742 | -3 | 1 | 92* | 5 | -40
COc1ccccc1Nc1c([N+](=O)[O-])cncc1[N+](=O)[O-] | 22 | 4253 | -3 | 5 | 1 | -11 | -25
CC(=O)Nc1sc2c(c1C(N)=O)CCC2 | 6.1 | 3031 | / | / | 5 | -4 | -4
C=CCn1c(Cc2ccc(OC)cc2)nnc1SCc1nc2ccccc2c(=O)[nH]1 | 6.7 | 11335 | 16 | 5 | -1 | -4 | 0
N#CC(=NNc1ccccc1F)C(=N)N1CCOCC1 | 8.2 | / | 9 | 3 | 4 | / | /
COC(=O)[C@H]1[C@H]2C[C@H]3c4[nH]c5ccccc5c4CCN3C[C@@H]2CC[C@@H]1O | / | 4353&5247 | / | / | / | 2&-7 | -12&-9
CN1CCN(c2ccc(NC(=O)c3ccc4c(c3)OCO4)cc2)CC1 | -0.7 | 3751 | -3 | 2 | -2 | -6 | -59
Fc1ccc(-c2nnc(-c3ccc(Cl)cc3Cl)o2)cc1 | 5.4 | 5680 | 18 | 13 | 14 | 3 | 13
NS(=O)(=O)c1ccc(NCCCn2ccnc2)c([N+](=O)[O-])c1 | 6.2 | 2817 | 10 | 4 | 9 | -14 | -2
CCc1nnc(NC(=O)CSc2nc3c(cc2C#N)CCCC3)s1 | 2.3 | 4703 | / | / | -1 | 2 | -86
CC(C)N1C(=O)NC(=O)C2(Cc3cc([N+](=O)[O-])ccc3N(C)C2c2ccccc2)C1=O (stereo unspecified) | 2.3 | 2228 | 1 | 1 | -9 | -3 | -14
CCc1c(C)nc(SCCOc2ccc(OC)cc2)[nH]c1=O | 9.1 | 4782 | 5 | 2 | -10 | 9 | -20
Cn1nccc1C(=O)NC1CCCc2c1cnn2-c1ccc(C(C)(C)C)cc1 (stereo unspecified) | -0.8 | 5765 | 5 | 2 | -8 | 22 | -42
CCCN1CCN(CCCNC(=O)CN2C(=O)c3cccnc3Oc3ccc(C)cc32)CC1 | -4.5 | 5582 | -4 | -7 | -6 | -6 | -16
Cc1cc(S(=O)(=O)NCCC2=CCCCC2)ccc1Br | 3.5 | ? | -4 | -9 | 3 | 2 | 8

As entered above:
COc1ccccc1Nc1c([N+](=O)[O-])cncc1[N+](=O)[O-] in Mtb hypoxia rep is listed with -3
N#CC(=NNc1ccccc1F)C(=N)N1CCOCC1 in Mtb hypoxia rep growth is listed with 3

Of the compounds above, 2 contain two or more sulfur atoms:
SMILES | RN4220 kill | Autofluor counter | Mtb hypoxia rep | Mtb hypoxia rep growth | Sa ugtP lethal | BJeLR viability | PrP UTR inh
Cc1cccc(Nc2nnc(SCC(=O)NC3CCCc4ccccc43)s2)c1 (stereo unspecified) | 0.3 | 2014 | 6 | 8 | 18 | 8 | -18
CCc1nnc(NC(=O)CSc2nc3c(cc2C#N)CCCC3)s1 | 2.3 | 4703 | / | / | -1 | 2 | -86

(next part)
SMILES | RN4220 kill | Autofluor counter | Mtb hypoxia rep | Mtb hypoxia rep growth | Sa ugtP lethal | BJeLR viability | PrP UTR inh
Cn1c(=O)c2c(nc(NCCO)n2C)n(C)c1=O | 1.9 | 4520 | / | / | 3 | -1 | 3
O=C(NNC(=S)Nc1ccccc1)c1cc(-c2cccnc2)nc2ccccc12 | -9.6 | 4264 | 0 | -1 | 3 | -9 | 1
O=C(Nc1cccc(C(=O)O)c1)/C(=C\c1ccco1)NC(=O)c1ccccc1Cl | -0.5 | 5779 | -6 | 8 | 0 | -6 | -10
O=C(c1cnn(C(=O)c2ccccc2F)c1)c1ccccc1O | 5.3 | 8088 | -6 | -1 | 0 | / | -20
COc1ccc(Cn2c(C)c(C)c(C#N)c2NC(=O)Nc2ccccc2)cc1 | / | 4207 | / | / | / | -9 | -9
FC(F)c1nnc2ccc(Cl)nn12 | 12 | 4809 | / | / | -1 | 10 | -3
CCOC(=O)CC1CCCCN1Cc1cn(C)nc1-c1ccc2c(c1)OCCO2 (stereo unspecified) | 5.5 | 3712 | 5 | 1 | 7 | -2 | -16
Cc1ccc(OC(=O)CCN2C(=O)c3ccccc3C2=O)cc1C | 5.2 | 4834 | 4 | 8 | 90* | 4 | -21
Cc1ccc(NC(=O)C2CCCN2C(=O)c2cccs2)c(C)c1 (stereo unspecified) | 3.5 | 3014 | 3 | -7 | 5 | -3 | -3
CC(=O)c1cnn(-c2cc(Oc3ccccc3C)ncn2)c1C | 4.8 | 2567 | 12 | 8 | 8 | -8 | -15
CC(=O)OC1CCC2(C)C(=CCC3C2CCC2(C)C3CC3OC4(CCC(C)CN4)C(C)C32)C1 (stereo unspecified) | -1.3 | 5588 | / | / | 8 | 3 | -12
Cc1oc(-c2ccccc2F)nc1CS(=O)(=O)CC(=O)N1CCN(Cc2ccccc2)CC1 | -6.8 | 4097 | 3 | 2 | 0 | 5 | -10
CC1CC(C)(C)NC(=S)N1CCCC(=O)N1CCN(c2ccccc2F)CC1 (stereo unspecified) | 0.1 | 2461 | 5 | -2 | 6 | -8 | -13
COC(=O)c1sc2ccccc2c1-n1cccc1C(=O)C(=O)Nc1ccc(OC)cc1 | -2.6 | 2368 | / | / | 34 | -3 | -14
CSc1ccccc1NC(=O)COC(=O)/C=C/c1ccco1 | 3.3 | 4344 | 4 | -1 | 7 | / | -18
CCN(c1ccccc1C(=O)O)S(=O)(=O)c1cccc2nsnc12 | 6.7 | 4316 | 8 | -3 | 7 | 2 | -55
O=C(Nc1cccc(Cl)c1)C1C2C=CC3(O2)C1C(=O)N(CCCN1CCCCC1)C3C(=O)NC1CCCCC1 (stereo unspecified) | 4.7 | 3898 | -3 | -7 | -2 | 4 | -12
CCOC(=O)c1c(C)[nH]c(C(=O)OCC(=O)NC2CCS(=O)(=O)C2)c1C (stereo unspecified) | 2.1 | 3399 | -4 | -2 | -3 | 3 | 3
O=C(ON=C1CCN(S(=O)(=O)c2ccccc2)CC1)c1ccc(Cl)cc1 | 1.1 | 4526 | 16 | 9 | 31 | -4 | 4
COc1ccc(-c2nnc(SCc3cccc(C#N)c3)o2)cc1 | 7.6 | 9398 | 0 | -4 | 15 | -7 | -28
CCOc1ccc(S(=O)(=O)N2CCOCC2)cc1NS(=O)(=O)c1ccc(OC)c([N+](=O)[O-])c1 | 1.3 | 5743 | 11 | 3 | 6 | -2 | -19
Cc1ccc(S(=O)(=O)N/N=C/c2cccc3c2OCCO3)cc1 | / | 2582 | / | / | / | 3 | -13
CCOC(=O)N1CCN(S(=O)(=O)CCNC(=O)c2cccc(OC)c2)CC1 | 5.4 | 4114 | 7 | 11 | 13 | 4 | -6
CCNC(=S)N1CCN(c2ccc([N+](=O)[O-])cc2)CC1 | -1.0 | 4681 | / | / | -1 | 9 | -12
Cc1ccc(C(=O)NCC(=O)OCC(=O)c2ccc3c(c2)NC(=O)CO3)cc1C | 2.4 | 5190 | 3 | 13 | 2 | 9 | -23
CN1CCN(CC(=O)Nc2ccccc2Sc2ccccc2)CC1 | 8.1 | 3524 | 6 | 3 | 8 | -1 | -9
Cc1ccc(S(=O)(=O)N2CCCCC2)cc1C(=O)N1CCCCCC1 | 4.6 | 3611 | -2 | 4 | 1 | / | -9
CC(=O)c1cnc(N(C)C)s1 | 3.9 | 3991 | / | / | 9 | -2 | -16
Cc1cc(N)n2nc(C)c(-c3ccc(Cl)cc3)c2n1 | -0.9 | 3244 | -18 | -5 | -6 | 2 | -17
CCC(C)[C@H](NC(=O)NCCC1=CCCCC1)C(=O)O (stereo partly specified) | 3.1 | 4052 | 0 | -5 | -2 | 9 | -2
Cc1ccc(C)c(NC(=O)CSc2nnc(-c3cc(C)[nH]n3)n2N)c1 | 2.5 | 4546 | -1 | -5 | 8 | -2 | 3
CCOC(=O)c1[nH]cnc1C(=O)Nc1ccccc1 | -1.0 | 3295 | 1 | 11 | 4 | -4 | -6
CC(=O)N1CCN(c2ccccc2NC(=O)COc2ccc(Br)cc2)CC1 | 1.5 | 23694* | -1 | 17 | -9 | 4 | 1
CC(C)CCOC(=O)c1c(N)n(CC2CCCO2)c2nc3ccccc3nc12 (stereo unspecified) | 6.3 | 4947 | / | / | -3 | -1 | -7
CCNC(=O)NC(=O)C(C)OC(=O)c1ccc(SC)cc1OC (stereo unspecified) | 1.0 | 5527 | -6 | 4 | -1 | 7 | -14
O=C(Nc1cccc(S(=O)(=O)Nc2ccc(Cl)cc2)c1)c1ccc[n+]([O-])c1 | 2.9 | 5059 | 12 | 8 | 4 | 4 | -15
CC(C)(C)NC(=O)CSc1nncn1-c1ccccc1 | 3.9 | 7782 | 14 | 6 | 2 | -13 | -13
Cc1c(C(=O)N(C)Cc2ccc(OC(F)F)cc2)oc2ccccc12 | 1.9 | 7211 | 14 | 4 | 11 | 1 | -13
O=C(NCCNCc1ccccn1)c1ccco1 | -3.1 | 2262 | -2 | -4 | 2 | 6 | -23
Cc1nn(CC(=O)N2CCCCCC2)c(=O)c2cc3occc3n12 | 2.0 | 6190 | 13 | 6 | -6 | 8 | -13

Results in Autofluor counter and Mtb hypoxia rep growth (2 entries from above):
structure | Autofluor counter | Mtb hypoxia rep growth
Cc1ccc(S(=O)(=O)N2CCCCC2)cc1C(=O)N1CCCCCC1 | 3611 | 4
CC(=O)c1cnc(N(C)C)s1 | 3991 | /

Further structures follow.
SMILES | RN4220 kill | Autofluor counter | Mtb hypoxia rep | Mtb hypoxia rep growth | Sa ugtP lethal | BJeLR viability | PrP UTR inh
Cc1cnc(NC(=O)CSc2ccc(Cl)cc2)s1 | 6.6 | 2857 | / | / | -1 | -2 | -15
COc1ccc(C(CNC(=O)C2CC(=O)N(Cc3ccccc3)C2)N2CCOCC2)cc1 (stereo unspecified) | 3.8 | 6195 | 4 | 0 | 0 | / | -13
CCOC(=O)c1sc(=S)n(C)c1NC(=O)c1ccc(OC)cc1 | 2.4 | 3558 | 21 | 8 | 18 | 15 | -12
O=C(CSc1n[nH]c(-c2ccncc2)n1)c1cccc([N+](=O)[O-])c1 | 1.7 | 4568 | 17 | -1 | 5 | 2 | -19
O=C(NCCc1ccc(Cl)cc1)C1CCCN1C(=O)NCc1ccccc1 (stereo unspecified) | 2.5 | 3632 | 8 | 11 | 4 | -1 | -27
CCCc1[nH]nc2c1C1(C(=O)N(CC(N)=O)c3ccccc31)C(C(=O)OC)=C(N)O2 (stereo unspecified) | 0.2 | 2689 | / | / | -3 | 1 | -19
Cc1ccccc1Nc1nc(N)nc(CN(C)Cc2ccccc2Cl)n1 | 0.4 | 3351 | -6 | -7 | 4 | 2 | -28
CC(C)(C=NO)/[N+]([O-])=C/c1ccccc1C(F)(F)F | 13 | / | -4 | 8 | 4 | / | /
CC1C/C(=C/c2cccs2)C(=O)/C(=C/c2cccs2)C1 (stereo unspecified) | -7.7 | 3192 | 8 | 1 | 90* | 4 | -11
COc1ccc(S(=O)(=O)N/N=C(/C)c2ccc(C)o2)cc1 | / | 3978 | / | / | / | -1 | -8
C#CCNc1ccc(C(=O)OCC)cc1 | 7.2 | 3550 | 0 | 4 | 6 | 3 | -24
COC(=O)C1=C(c2cccc(OC)c2OC)C[C@@H]2CC[C@H]1N2C(=O)N1CCC(O)CC1 | / | 4185 | / | / | / | -9 | -30
Cc1cc(OCC(=O)Nc2ccncc2)cc(C)c1Br | -8.4 | 2404 | 17 | 11 | -11 | 1 | -15
Cc1ccc2[nH]c3c(c2c1)CNCC3 | 0.5 | 2958 | 8 | -10 | 9 | -19 | -12
O=C(O)c1ccc(N2CCN(c3ccc(Cl)cc3)CC2)c([N+](=O)[O-])c1 | 4.0 | 3728 | 4 | -1 | 29 | -3 | -15

From PubChem
